A1 apoptosis 2 = A1 inhibition read as caspase activation; MEF A1-2A-BIM cells, caspase-Glo luminescence, 3 h; percent of clofoctol response, DMSO zero; AID 2465; caspase activation, % (test concentration not listed); 24,000 tested, under 10 active; in the data active means caspase activation above about 5.9%;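 further: wells of about 30 µL received 50 nL stock; the first replicate is given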
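Material: A1-2A-BIM-expressing MEF cells. Buffer or medium: RPMI-1640 plus 10% FBS. Incubation: cells settled overnight, compound exposure 3 h at 37 °C, 5% CO2. Signal: Caspase-Glo 3/7 luminescence, 1 h at room temperature.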
Numbers without * were called inactive. Only part of the results is shown; count on the stated rates, not on these rows.

SMILES	A1 apoptosis 2
C[C@@H]1CCCCO[C@H](CN(C)S(=O)(=O)c2ccc(F)cc2)[C@@H](C)CN([C@@H](C)CO)C(=O)c2cc(NC(=O)Nc3ccc(F)cc3)ccc2O1	0.1
C[C@@H]1CN([C@H](C)CO)C(=O)c2cccc(NC(=O)Nc3cccc4ccccc34)c2O[C@@H]1CN(C)C	0.8
C[C@@H]1CN([C@@H](C)CO)C(=O)Cc2cc(NS(C)(=O)=O)ccc2O[C@@H]1CN(C)Cc1ccc(C(F)(F)F)cc1	0.4
COc1ccc(CN(C)C[C@@H]2OCCCC[C@H](C)Oc3ccc(NC(=O)Nc4ccc(C(F)(F)F)cc4)cc3C(=O)N([C@@H](C)CO)C[C@H]2C)cc1	1.0
Cc1noc(C)c1S(=O)(=O)Nc1ccc2c(c1)CC(=O)N([C@H](C)CO)C[C@H](C)[C@@H](CN(C)S(=O)(=O)c1ccc(F)cc1)O2	-0.6
COC(=O)CCCCCCC(=O)N/N=C/CNC(=O)OC(C)(C)C	-0.2
C[C@@H]1CN([C@@H](C)CO)C(=O)c2cccc(NC(=O)c3nc4ccccc4s3)c2O[C@H]1CN(C)C(=O)Nc1ccc2c(c1)OCO2	0.2
Cc1noc(C)c1S(=O)(=O)Nc1ccc2c(c1)C(=O)N([C@@H](C)CO)C[C@@H](C)[C@H](CN(C)Cc1ccc(Cl)c(Cl)c1)O2	-0.4
C[C@@H]1CN([C@H](C)CO)C(=O)c2cccc(NC(=O)C3CCOCC3)c2O[C@H]1CN(C)S(=O)(=O)c1ccc(Cl)cc1	1.2
C[C@H](CO)N1C[C@H](C)[C@H](CN(C)S(=O)(=O)c2ccccc2)OCCCC[C@H](C)Oc2ccc(NS(=O)(=O)c3cccs3)cc2C1=O	-0.5
COc1ccc(CN(C)C[C@H]2Oc3c(NC(=O)NC4CCCCC4)cccc3C(=O)N([C@H](C)CO)C[C@@H]2C)cc1	0.4
C[C@H]1CN([C@@H](C)CO)C(=O)c2cc(NC(=O)Cn3cnnn3)ccc2O[C@H]1CN(C)Cc1ccncc1	0.0
C[C@H](CO)N1C[C@H](C)[C@H](CN(C)S(=O)(=O)c2cccs2)Oc2ccc(NC(=O)Nc3ccc(F)cc3)cc2CC1=O	-0.5
COc1ccc(S(=O)(=O)Nc2ccc3c(c2)C(=O)N([C@H](C)CO)C[C@H](C)[C@H](CN(C)C(=O)NC2CCCCC2)OCCCC[C@@H](C)O3)cc1	1.7
C[C@H]1CN([C@@H](C)CO)C(=O)Cc2cc(NS(=O)(=O)c3cccs3)ccc2O[C@@H]1CN(C)C(=O)Nc1ccc2c(c1)OCO2	-1.1
COc1ccc(NC(=O)Nc2cccc3c2O[C@H](CN(C)S(=O)(=O)c2ccc(OC)cc2)[C@@H](C)CN([C@@H](C)CO)C3=O)cc1	0.6
C[C@H](CO)N1C[C@H](C)[C@H](CN(C)S(=O)(=O)c2cn(C)cn2)Oc2c(NC(=O)c3ccncc3)cccc2C1=O	0.5
C[C@@H]1CN([C@H](C)CO)C(=O)c2cc(NC(=O)c3ccncc3)ccc2O[C@H]1CN(C)S(=O)(=O)c1cccs1	-2.0
CCO[C@H]1OC(C(=O)NCc2ccccc2)=C[C@@H](c2ccc3c(c2)OCO3)[C@@H]1CCCO	-0.2
CNC[C@H]1Oc2c(NC(=O)NC3CCCCC3)cccc2C(=O)N([C@@H](C)CO)C[C@@H]1C	-0.4
C[C@@H]1CCCCO[C@H](CN(C)S(=O)(=O)c2ccccc2)[C@H](C)CN([C@H](C)CO)C(=O)c2cc(NC(=O)Nc3ccc(C(F)(F)F)cc3)ccc2O1	0.4
C[C@@H]1CN([C@H](C)CO)C(=O)c2cc(NS(C)(=O)=O)ccc2O[C@@H](C)CCCCO[C@@H]1CN(C)C(=O)c1ccccc1	1.2
Cc1ccc(S(=O)(=O)N(C)C[C@H]2Oc3c(NS(=O)(=O)c4ccc(Cl)cc4)cccc3C(=O)N([C@@H](C)CO)C[C@H]2C)cc1	-0.6
COc1ccc(S(=O)(=O)Nc2ccc3c(c2)C(=O)N([C@H](C)CO)C[C@H](C)[C@H](CN(C)S(=O)(=O)c2ccc(Cl)cc2)OCCCC[C@H](C)O3)cc1	-0.3
Cc1ccc(S(=O)(=O)Nc2cccc3c2O[C@@H](CN(C)C(=O)Nc2ccc(C(F)(F)F)cc2)[C@H](C)CN([C@H](C)CO)C3=O)cc1	0.8
Other structures:
SMILES	A1 apoptosis 2
C[C@@H]1CCCCO[C@H](CN(C)C(=O)C2CCCCC2)[C@H](C)CN([C@H](C)CO)C(=O)c2cc(NC(=O)Nc3ccccc3)ccc2O1	-1.8
COC(=O)CCCCCCC(=O)N/N=C/C[C@H](C)CCC=C(C)C	-0.1
COc1ccc(S(=O)(=O)N(C)C[C@H]2Oc3ccc(NC(=O)Nc4cccc5ccccc45)cc3CC(=O)N([C@@H](C)CO)C[C@@H]2C)cc1	0.8
C[C@@H]1CN([C@H](C)CO)C(=O)c2cccc(NC(=O)CCCCCC(=O)Nc3ccccc3N)c2O[C@H]1CN(C)S(=O)(=O)c1cccs1	0.3
Cc1noc(C)c1NC(=O)Nc1ccc2c(c1)C(=O)N([C@H](C)CO)C[C@@H](C)[C@H](CN(C)S(C)(=O)=O)OCCCC[C@@H](C)O2	0.3
COc1ccc(CN(C)C[C@@H]2OCCCC[C@@H](C)Oc3ccc(N(C)C)cc3C(=O)N([C@H](C)CO)C[C@@H]2C)cc1	-0.8
CC(C)NC(=O)N(C)C[C@@H]1Oc2c(NC(=O)CCCCCC(=O)Nc3ccccc3N)cccc2C(=O)N([C@@H](C)CO)C[C@@H]1C	-1.4
COc1ccc(S(=O)(=O)Nc2ccc3c(c2)C(=O)N([C@H](C)CO)C[C@H](C)[C@H](CN(C)CC2CCCCC2)OCCCC[C@H](C)O3)cc1	1.5
CC(C)NC(=O)N(C)C[C@@H]1OCCCC[C@H](C)Oc2ccc(NS(C)(=O)=O)cc2C(=O)N([C@@H](C)CO)C[C@@H]1C	0.0
Cc1noc(C)c1S(=O)(=O)Nc1ccc2c(c1)C(=O)N([C@H](C)CO)C[C@@H](C)[C@@H](CN(C)C(=O)NC(C)C)O2	-0.7
C[C@H](CO)N1C[C@H](C)[C@@H](CN(C)C(=O)Nc2ccc3c(c2)OCO3)Oc2ccc(NC(=O)C3CC3)cc2C1=O	0.0
COc1ccccc1NC(=O)N(C)C[C@@H]1OCc2cnnn2CCCC(=O)N([C@H](C)CO)C[C@@H]1C	1.3
COc1ccc(S(=O)(=O)N(C)C[C@@H]2Oc3ccc(NC(=O)Cc4cn(C)c5ccccc45)cc3CC(=O)N([C@H](C)CO)C[C@H]2C)cc1	0.5
COc1ccc(S(=O)(=O)N(C)C[C@H]2Oc3ccc(NS(=O)(=O)c4ccc(Cl)cc4)cc3C(=O)N([C@H](C)CO)C[C@H]2C)cc1	0.2
COc1ccc(CN(C)C[C@@H]2OCCCC[C@@H](C)Oc3ccc(NS(=O)(=O)c4cccs4)cc3C(=O)N([C@H](C)CO)C[C@@H]2C)cc1	0.8
C[C@H]1CN([C@@H](C)CO)C(=O)c2cccc(NS(=O)(=O)c3ccc(Cl)cc3)c2O[C@@H]1CN(C)S(=O)(=O)c1cn(C)cn1	-1.1
COc1ccc(NC(=O)N(C)C[C@H]2Oc3c(NS(=O)(=O)c4ccc(C)cc4)cccc3C(=O)N([C@H](C)CO)C[C@H]2C)cc1	-0.1
COc1ccc(S(=O)(=O)NC2CCN(Cc3ccc(OCCO)cc3)CC2)cc1	-0.3
C[C@H]1CN([C@@H](C)CO)C(=O)Cc2cc(NS(=O)(=O)c3cn(C)cn3)ccc2O[C@@H]1CN(C)CC1CC1	0.6
CC(C)NC(=O)Nc1ccc2c(c1)CC(=O)N([C@H](C)CO)C[C@@H](C)[C@@H](CN(C)Cc1ccncc1)O2	0.1
C[C@@H]1CCCCO[C@@H](CN(C)C(=O)Cc2ccccc2)[C@@H](C)CN([C@H](C)CO)C(=O)c2cc(NC(=O)Nc3ccc4c(c3)OCO4)ccc2O1	-1.0
COc1ccc(COCC23N=C4SCCCN4[C@H](c4ccccc4O2)[C@H]3CO)cc1	0.0
Cc1noc(C)c1S(=O)(=O)N(C)C[C@H]1Oc2ccc(NC(=O)Cc3cn(C)c4ccccc34)cc2CC(=O)N([C@@H](C)CO)C[C@H]1C	0.1
COC(=O)[C@]1(Cc2ccccc2N=[N+]=[N-])N=C(c2ccc(OCCCO)cc2)O[C@@H]1c1ccccc1CN=[N+]=[N-]	-1.1
COc1ccc(NC(=O)N(C)C[C@H]2Oc3ccc(NC(=O)C4CCCCC4)cc3CC(=O)N([C@@H](C)CO)C[C@H]2C)cc1	0.0
More compounds:
SMILES	A1 apoptosis 2
C[C@@H]1CN([C@@H](C)CO)C(=O)c2cc(NS(=O)(=O)c3ccccc3)ccc2O[C@@H](C)CCCCO[C@H]1CN(C)S(=O)(=O)c1ccc(Cl)cc1	-1.5
C[C@H](CO)N1C[C@H](C)[C@H](CN(C)C(=O)Nc2cccc3ccccc23)Oc2ncc(C#Cc3ccccc3)cc2C1=O	1.4
O=C(CCCCCC(=O)Nc1ccccc1O)N/N=C/c1cc(Br)cs1	-0.8
C[C@@H]1CN([C@H](C)CO)C(=O)c2cc(NS(C)(=O)=O)ccc2O[C@@H](C)CCCCO[C@@H]1CN(C)C	-1.0
Cc1noc(C)c1S(=O)(=O)Nc1ccc2c(c1)C(=O)N([C@H](C)CO)C[C@@H](C)[C@@H](CN(C)CC1CCCCC1)OCCCC[C@@H](C)O2	-1.7
CNC[C@@H]1OCCCC[C@H](C)Oc2ccc(NC(=O)Nc3ccc(F)cc3)cc2C(=O)N([C@H](C)CO)C[C@H]1C	-1.0
C[C@H]1CN([C@@H](C)CO)C(=O)Cc2cc(NC(=O)c3ccncc3)ccc2O[C@@H]1CN(C)CC1CC1	-1.0
C[C@H](CO)N1C[C@H](C)[C@@H](CN(C)S(=O)(=O)c2cccs2)Oc2ccc(NC(=O)Nc3ccc(F)cc3)cc2CC1=O	-0.4
COc1ccc(S(=O)(=O)Nc2ccc3c(c2)C(=O)N([C@@H](C)CO)C[C@@H](C)[C@H](CN(C)S(=O)(=O)c2cn(C)cn2)OCCCC[C@@H](C)O3)cc1	0.1
C[C@H](CO)N1C[C@H](C)[C@@H](CN(C)CC2CCCCC2)Oc2ccc(N(C)C)cc2C1=O	-0.9
C[C@H]1CN([C@@H](C)CO)C(=O)c2cccc(NC(=O)NC3CCCCC3)c2O[C@@H]1CN(C)S(=O)(=O)c1cn(C)cn1	1.9
C[C@H]1CN([C@@H](C)CO)C(=O)c2cccc(NS(=O)(=O)c3cccs3)c2O[C@H]1CN(C)C(=O)Nc1ccc(C(F)(F)F)cc1	-0.1
C[C@H]1CN([C@@H](C)CO)C(=O)CCCn2cc(nn2)CO[C@H]1CN(C)C(=O)Nc1ccnc(N2CCOCC2)c1	0.8
COc1ccc(S(=O)(=O)N(C)C[C@@H]2OCCCC[C@H](C)Oc3ccc(NS(=O)(=O)c4cccs4)cc3C(=O)N([C@@H](C)CO)C[C@H]2C)cc1	-0.9
Cc1noc(C)c1S(=O)(=O)N(C)C[C@@H]1Oc2c(NC(=O)c3ccc(-c4nccs4)cc3)cccc2C(=O)N([C@@H](C)CO)C[C@H]1C	-0.9
C[C@@H]1CN([C@H](C)CO)C(=O)c2cccc(NC(=O)c3ccc(-c4nccs4)cc3)c2O[C@H]1CN(C)Cc1ccc(Cl)c(Cl)c1	1.5
C[C@H](CO)N1C[C@H](C)[C@H](CN(C)C(=O)Nc2ccc(C(C)(C)C)cc2)OCc2cnnn2CCCC1=O	-1.3
C=CCOC(=O)C1=C[C@H](c2csc3ccccc23)C[C@H](OCc2ccc(CO)cc2)O1	-0.1
O=C1N[C@@H](Cc2ccccc2)C(=O)N2[C@@H]1C[C@@H](C(=O)NCc1ccc(F)cc1)[C@H]2c1cccc(OCCO)c1	0.2
C[C@@H]1CN([C@@H](C)CO)C(=O)Cc2cc(NC(=O)CCC(F)(F)F)ccc2O[C@@H]1CN(C)S(=O)(=O)c1cccs1	0.1
Cc1noc(C)c1NC(=O)Nc1ccc2c(c1)C(=O)N([C@@H](C)CO)C[C@@H](C)[C@H](CN(C)S(=O)(=O)c1c(C)noc1C)OCCCC[C@H](C)O2	-0.9
Cc1noc(C)c1NC(=O)N(C)C[C@H]1OCCCC[C@@H](C)Oc2ccc(NS(=O)(=O)c3cn(C)cn3)cc2C(=O)N([C@@H](C)CO)C[C@@H]1C	-1.1

Shown with bars between the fields: 10 of the compounds above
structure | A1 apoptosis 2
C[C@@H]1CCCCO[C@H](CN(C)S(=O)(=O)c2ccc(F)cc2)[C@@H](C)CN([C@@H](C)CO)C(=O)c2cc(NC(=O)Nc3ccc(F)cc3)ccc2O1 | 0.1
C[C@@H]1CN([C@H](C)CO)C(=O)c2cccc(NC(=O)Nc3cccc4ccccc34)c2O[C@@H]1CN(C)C | 0.8
C[C@@H]1CN([C@@H](C)CO)C(=O)Cc2cc(NS(C)(=O)=O)ccc2O[C@@H]1CN(C)Cc1ccc(C(F)(F)F)cc1 | 0.4
COc1ccc(CN(C)C[C@@H]2OCCCC[C@H](C)Oc3ccc(NC(=O)Nc4ccc(C(F)(F)F)cc4)cc3C(=O)N([C@@H](C)CO)C[C@H]2C)cc1 | 1.0
Cc1noc(C)c1S(=O)(=O)Nc1ccc2c(c1)CC(=O)N([C@H](C)CO)C[C@H](C)[C@@H](CN(C)S(=O)(=O)c1ccc(F)cc1)O2 | -0.6
COC(=O)CCCCCCC(=O)N/N=C/CNC(=O)OC(C)(C)C | -0.2
C[C@@H]1CN([C@@H](C)CO)C(=O)c2cccc(NC(=O)c3nc4ccccc4s3)c2O[C@H]1CN(C)C(=O)Nc1ccc2c(c1)OCO2 | 0.2
Cc1noc(C)c1S(=O)(=O)Nc1ccc2c(c1)C(=O)N([C@@H](C)CO)C[C@@H](C)[C@H](CN(C)Cc1ccc(Cl)c(Cl)c1)O2 | -0.4
C[C@@H]1CN([C@H](C)CO)C(=O)c2cccc(NC(=O)C3CCOCC3)c2O[C@H]1CN(C)S(=O)(=O)c1ccc(Cl)cc1 | 1.2
C[C@H](CO)N1C[C@H](C)[C@H](CN(C)S(=O)(=O)c2ccccc2)OCCCC[C@H](C)Oc2ccc(NS(=O)(=O)c3cccs3)cc2C1=O | -0.5

Assay outcomes: PubChem BioAssay, Broad Institute
